# Vif TR-FRET: HIV-1 Vif–A3G interaction blockers – biochemical, TR-FRET, GST-Vif 1-94, biotin-A3G peptide, dose response retest, primary screen (AID 1117319) | TR-FRET GST-Vif / biotin-A3G peptide binding; higher % means a stronger effect; test concentration not given here; strong numbers were not always called active | one-dose inhibition, %; IC50 in µM for titrated hits | 0.57% of 260,000 active;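 active = above the screen mean plus three standard deviations and confirmed in dose response; inconclusive = results disagree or hit not tested in dose response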;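 note: Vif residues 1-94 fused to GST binding biotinylated APOBEC3G peptide 110-148; 0% = full assay without inhibitor and 100% = GST in place of GST-Vif; retest series ran down from 100 µM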
# Beta2AR agonist: human beta-2 adrenergic receptor agonism by FAP; AID 504454; Am2.2-beta2AR cells, FAP receptor internalization, flow cytometry; reference of the scale not given here; P07550; response, % (test concentration not listed); 0.43% of 340,000 active;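 active = response above a set limit, near 3 SD of response in nonfluorescent compounds, cut at about 42% in these data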;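 note: stock transfer was 100 nL into about 11 µL; a reference agonist was the positive control; negative values mostly stem from fluorescent compounds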
# Target sequence (P07550 whole entry, looked up): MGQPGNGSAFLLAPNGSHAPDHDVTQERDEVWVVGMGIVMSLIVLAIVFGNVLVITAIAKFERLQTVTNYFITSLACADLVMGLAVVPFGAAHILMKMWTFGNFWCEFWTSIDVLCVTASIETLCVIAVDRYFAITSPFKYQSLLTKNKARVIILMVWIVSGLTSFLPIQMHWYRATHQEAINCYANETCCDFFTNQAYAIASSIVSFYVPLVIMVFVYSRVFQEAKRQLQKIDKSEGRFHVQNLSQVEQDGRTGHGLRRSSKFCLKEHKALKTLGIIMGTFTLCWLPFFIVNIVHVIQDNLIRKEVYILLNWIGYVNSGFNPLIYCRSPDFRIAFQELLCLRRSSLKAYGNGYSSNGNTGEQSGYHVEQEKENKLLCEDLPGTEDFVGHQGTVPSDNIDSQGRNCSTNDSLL
# UCH37 DUB inh: human UCH37 deubiquitinating enzyme inhibition; Q9Y5K5; purified proteasome/UCH37, Ub-AMC cleavage fluorescence; 0.33% of 330,000 active; inhibition, % (test concentration not listed);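 active = mean of two replicates above 20%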;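 note: 0% = compound-free wells with enzyme and 100% = wells lacking proteasome; stock transfer was 100 nL into about 20 µL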
#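 Schedule: 30 min plus 25 min, room temperature / Material: human UCH37 within purified proteasomes / Technique: AMC fluorescence intensity at 355/460 nm / Buffer or medium: pH 7.4 Tris-HCl (50 mM) with ovalbumin, ATP-MgCl2, DTT / Controls: wells without proteasome as full block, compound-free enzyme plus substrate as uninhibited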
# E coli growth: inhibitors of Escherichia coli growth. OD600, 23 h; active compounds read low. OD600 absorbance (no concentration beside the values). 0.21% of 330,000 active. AID 1053175;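 active = OD600 absorbance below the run mean of sample wells minus 3.6 SD, in any replicate, cut at about 0.56 in these data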;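 note: stock transfer was 300 nL into about 60 µL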
# HNF4A DNA FP: change in binding of human HNF4 alpha to DNA; AID 1224865; P41235; 0.3% of 360,000 active; HNF4a-FITC DNA binding, fluorescence polarization, 1 h; activity change, % at 10 µM; in the data active = activity change above about 30%, passing the limit was not always enough;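 note: controls were the assay level and a saturating level of protein; the project sought stronger binding though the title names inhibitors; some compounds called inactive have numbers as strong as hits; positive values seem to mean higher polarization but the record does not say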
# Target sequence (P41235 whole entry, looked up): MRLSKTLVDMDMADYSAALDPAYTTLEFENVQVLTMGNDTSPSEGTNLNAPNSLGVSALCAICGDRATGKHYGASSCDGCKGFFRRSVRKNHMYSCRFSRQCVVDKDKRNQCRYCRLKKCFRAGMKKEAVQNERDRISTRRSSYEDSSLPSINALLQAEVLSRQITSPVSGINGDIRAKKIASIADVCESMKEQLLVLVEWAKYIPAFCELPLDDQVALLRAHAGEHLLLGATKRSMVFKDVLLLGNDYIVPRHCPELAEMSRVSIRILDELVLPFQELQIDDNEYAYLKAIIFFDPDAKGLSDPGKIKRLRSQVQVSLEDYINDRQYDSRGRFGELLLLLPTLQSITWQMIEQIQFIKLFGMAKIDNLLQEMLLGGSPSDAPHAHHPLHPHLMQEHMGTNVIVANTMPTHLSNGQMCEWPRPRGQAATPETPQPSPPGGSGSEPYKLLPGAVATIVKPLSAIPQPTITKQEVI
# A1 inh: inhibitors of the anti-apoptotic protein A1, read as caspase activation; MEF A1-2A-BIM cells, Caspase-Glo 3/7 luminescence, 3 h; percent of clofoctol response, vehicle zero; caspase activation, % (test concentration not listed); 0.066% of 330,000 active;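 active = over half of replicate activation scores above 10%, or exactly half above 10 with the replicate mean above 10; inconclusive = replicate mean below 10 yet half the replicates above 10; inactive = over half of replicates below 10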;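 note: wells of about 30 µL received 50 nL stock; many hits fall short of the cut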
# LANA-H2B inh: blocks KSHV LANA binding to histone H2A/H2B. cell-free LANA-H2A/H2B peptide, fluorescence polarization. 0.6% of 320,000 active. inhibition, % (concentration not given with the values). Q9QR71; in the data active = inhibition mostly above about 10%, no sharp cut-off; inactive = mostly below about 6.7%;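 note: stock transfer was 7.5 nL into about 10 µL; 0% = median of vehicle wells and 100% = median of positive control wells; one replicate is shown; the record names a cut of 25% in any replicate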
# * = called active by the depositor; ? = inconclusive; / = no result given; & = joins results of further samples.
SMILES,Vif TR-FRET,Beta2AR agonist,UCH37 DUB inh,E coli growth,HNF4A DNA FP,A1 inh,LANA-H2B inh
CCOc1cc(C(=O)OC(C)C(=O)Nc2ccc(NC(C)=O)cc2)ccc1OCC(=O)N1CCCCC1 (stereo not drawn),/,-4,5.8,0.7,-3.1,1.1,1.9
C/C(=N/OC(=O)c1c(-c2ccccc2Cl)noc1C)c1cnccn1,10%,-8,/,/,1.0,-0.4,-1.6
CCOc1ccc(-c2nc3scc(-c4cccs4)c3c(=O)[nH]2)cc1,-14%,1,-313,0.76,5.8,-0.7,-0.9
COC(=O)CN(c1cc(Cl)ccc1OC)S(=O)(=O)c1ccc(C)cc1,32%,2,2.4,0.65,-1.3,-0.3,-3.3
COc1cccc(OCCCOc2ccc([N+](=O)[O-])cc2Cl)c1,2%,-10,3.7,0.71,1.2,-0.1,6.5
Cc1oc(/C=N/NC(=O)CN(c2ccccc2Br)S(C)(=O)=O)cc1Br,-3%,3,/,/,-0.7,0.5,3.2
CCOc1ccc(S(=O)(=O)n2cc(F)c(=O)[nH]c2=O)cc1[N+](=O)[O-],4%,9,1.9,0.73,1.8,-0.4,-1.5
Cc1ccc(-c2cccc(NC(=O)C3C4C=CC(C4)C3C(=O)O)c2)o1 (stereo not drawn),-3%,4,3.0,0.7&0.65,5.3,0.4,0.7
COc1ccc(S(=O)(=O)NCCCCCC(=O)NCCCN2CCOCC2)cc1,0%,4,1.8,0.71,-0.8,-0.7,-3.4
COc1ccc(-n2c(COc3cccc(C)c3)n[nH]c2=S)cc1,-5%,-5,1.2,0.7,2.0,-0.6,-0.3
CCCCOC(=O)N1CCOCCOCCOCC1,-10%,-2,0.5,0.66,1.7,-1.1,0.7
Nc1[nH]nc2c1NN(c1ccc(Cl)cc1Cl)N2,20%,6,3.2,0.68,-2.8,-0.7,-7.0
CCOC(=O)CCCn1ncn2c(cc3occc32)c1=O,7%,-1,0.4,0.7,-0.8,-0.3,0.7
CCC1(c2ccc(F)cc2)NC(=O)N(CC(=O)NC2CCCC(C)C2C)C1=O (stereo not drawn),-3%,-6,0.1,0.65,1.0,-0.1,1.0
CC(C)N(C(=O)COC(=O)Cn1cnc2ccccc21)c1ccccc1,-5%,0,0.3,0.71,4.4,/,/
Cc1nc([N+](=O)[O-])cn1CC(=O)NCCCO,/,1,1.6,0.71,-2.0,-0.2,4.1
Oc1ccccc1-n1nc2ccc3nonc3c2n1,-1%,1,0.8,0.65,6.8,-1.1,-1.2
COc1cccc(NC(=O)C(C)NS(=O)(=O)c2ccc(Br)cc2)c1 (stereo not drawn),-3%,3,-2.4,0.7,21,-0.4,0.9
Cc1ccc(-n2c(C)cn(C(=O)c3ccccc3)c2=S)cc1,1%,-7,-19,0.66,-2.1,0.5,0.8
CC(=O)N1CCC[C@H]1C(=O)O,-1%,-4,-1.5,0.67,2.1,1.4,4.4
O=C(CN1C(=O)S/C(=C\c2ccc(C(=O)O)cc2)C1=O)Nc1ccccc1,/,13,10,0.66,-0.4,0.3,-0.2
CCN(CC)S(=O)(=O)c1cnccc1N1CCN(c2cccc(Cl)c2)CC1,-8%,0,2.9,0.68,-0.1,2.2,4.1
CCCNC(=O)CCC(=O)Nc1ncc(-c2ccc(C)cc2)n1C,3%,3,0.6,0.7,-3.4,0.4,-0.2
CCCCCCCCCC(=O)N1CCN(c2cc3c(cc2F)c(=O)c(C(=O)O)cn3CC)CC1,-8%,0,-153,0.56,-3.6,-0.2,9.0
COC(=O)c1cc(NC(=O)c2c(-c3ccccc3)noc2C)ccc1N1CCOCC1,3%,-7,-1.6,0.67,-0.8,0.8,-2.9
CC(C)(C)NC(=O)C(c1cccs1)N(Cc1ccco1)C(=O)c1csnn1 (stereo not drawn),-8%,3,1.5,0.66,2.8,-0.2,0.3
Cc1cccc(C)c1OCC(O)Cn1ccnc1C (stereo not drawn),-4%,2,1.7,0.69,8.6,-0.3,3.0
COc1cc2c(cc1OC)CN(C(=S)Nc1c(C)cccc1C)CC2,2%,-10,3.2,0.74,-2.2,0.7,0.8
O=C(CSc1nc(Nc2ccccc2)nc(N2CCOCC2)n1)Nc1cccc([N+](=O)[O-])c1,/,-3,-1.7,0.71,-0.9,1.1,-4.5
O=C1NC(=O)C(=Cc2ccc(Cl)c(Cl)c2)S1,-7%,-2,5.1,0.67,-4.0,/,/
CC(=O)N1CCN(c2cc3c(cc2F)c(=O)c(C(=O)O)cn3C2CC2)CC1,?,-5,-245,0.067*,-3.3,0.2,-2.7
CCc1nonc1NC(=O)c1oc2cc(C)c(Cl)cc2c1C,-1%,-4,0.4,0.69,-2.2,/,/
CN1C(=O)c2cccc3c(S(N)(=O)=O)ccc1c23,/,-7,-219,0.7,4.8,0.0,3.7
O=C(NC(=S)Nc1ccc(Cl)cn1)c1cc([N+](=O)[O-])ccc1N1CCOCC1,/,-22,3.5,0.7,0.3,0.0,1.6
Cc1ccc(-c2nnc(SCC(N)=O)nc2-c2ccc(C)cc2)cc1,/,-12,5.8,0.7,4.8,-1.6,-1.5
CC(C)N1CCN(C2CSCCSC2)CC1CCO (stereo not drawn),-5%,11,4.8,0.68,-2.3,0.1,1.5
COCCSc1ccccc1C(=O)Nc1cc(C)cc(C)c1,4%,-2,0.4,0.66,5.7,0.6,-0.2
Nc1c(NCCN2CCCCC2)c2ccccc2oc1=O,/,-18,1.4,0.65,2.5,0.0,1.9
C(/C=C/c1ccccc1)=N/N1CCN(c2ccccc2)CC1,2%,6,/,/,-0.9,0.6,3.8
C[C@H](CO)N1C[C@H](C)[C@@H](CN(C)CC2CCCCC2)Oc2c(NC(=O)C3CC3)cccc2C1=O,/,-11,-0.2,0.74,-0.2,-0.2,-4.0
O=c1c2ccccc2nc(N/N=C/c2c(O)ccc3ccccc23)n1O,?,6,/,/,-2.9,-3.2,2.4
O=C(O)C1CCN(c2ncccn2)CC1,-6%,3,-1.1,0.69,1.4,-0.9,5.0
CCCCNC(=O)CC1N=C2c3ccccc3N=C(SCC(=O)Nc3cccc(OC)c3)N2C1=O (stereo not drawn),5%,-12,2.4,0.7,-1.1,0.6,-4.2
COc1ccc(NC(=O)CSc2c3c(nc4cc(Cl)ccc24)CCCC3)cc1OC,13%,4,11,0.66,1.1,-0.5,4.8
Fc1ccccc1N1CCN(C(c2ccccn2)c2nnnn2C2CCCCC2)CC1 (stereo not drawn),29%,2,-0.7,0.72,0.4,-1.3,12*
O=C(Nc1ccc2c(c1)OCCO2)c1cc2ccccc2o1,-10%,0,1.9,0.61,-4.6,-8.5,-3.7
O=C(OCc1cncs1)c1cccs1,/,3,-0.1,0.62,-0.4,0.1,1.8
O=c1cc(N2CCCC2)[nH]c(=O)n1-c1ccc(Cl)cc1,-2%,3,0.3,0.66,-0.4,0.1,-5.1
CCC(CO)N=CC1=C(O)C(C(=O)c2ccccc2)CCC1=O (stereo not drawn),0%,-1,2.3,0.72,8.3,-0.6,-4.8
COCCCNC(=O)CN(CCc1ccccc1)S(=O)(=O)c1ccc(C)cc1,-6%,2,0.6,0.68,2.3,-4.6,1.2
CCCn1c(=O)c(Cc2ccccc2)c(O)c2ccccc21,-6%,-1,-0.9,0.82,0.1,-0.2,-5.3
CCCOc1ccc(C(=O)NC2CCSc3ccccc32)cc1 (stereo not drawn),1%,-3,1.5,0.7,2.0,-1.4,-5.1
CCOc1ccc(C(=O)Nc2ccc(Cc3ccncc3)cc2)cc1Br,-10%,7,3.6,0.68,-3.0,-0.1,2.1
CCOCCCNC(=S)N1C2CCC1CC(NC(=O)NC13CC4CC(CC(C4)C1)C3)C2 (stereo not drawn),9%,-10,2.2,0.66,0.6,0.2,-3.0
NNC(=O)CSc1nc(-c2ccccc2)cn1-c1ccccc1,-3%,-7,5.5,0.68,1.8,0.0,1.2
Cn1c(=O)c2c(SCc3c(F)cccc3Cl)nc(CC(C)(C)C)nc2n(C)c1=O,7%,10,-2.4,0.8,-0.5,-0.7,0.4
Cc1ccc(NC(=O)COC(=O)C(NS(=O)(=O)c2ccc(Cl)cc2)C(C)O)cc1C (stereo not drawn),-2%,0,1.2,0.68,-0.4,-0.4,-1.7
CC1CCCC(NC(=O)COC(=O)/C=C/c2ccc(S(=O)(=O)N3CCOCC3)cc2)C1C (stereo not drawn),/,1,-0.4,0.65,1.1,0.2,8.1
CCn1c(SCC(=O)Nc2ccc(OC)c(OC)c2)nnc1-c1cccs1,?,-19,2.0,0.72,1.4,-0.4,6.8
O=C(NCc1ccccn1)Nc1ccc2c(c1)OCO2,5%,5,0.3,0.62,2.6,0.1,2.2

# Four records picked at random from the list so far, as already listed:
SMILES,Vif TR-FRET,Beta2AR agonist,UCH37 DUB inh,E coli growth,HNF4A DNA FP,A1 inh,LANA-H2B inh
CCOCCCNC(=S)N1C2CCC1CC(NC(=O)NC13CC4CC(CC(C4)C1)C3)C2 (stereo not drawn),9%,-10,2.2,0.66,0.6,0.2,-3.0
O=C(Nc1ccc2c(c1)OCCO2)c1cc2ccccc2o1,-10%,0,1.9,0.61,-4.6,-8.5,-3.7
CCOc1ccc(C(=O)Nc2ccc(Cc3ccncc3)cc2)cc1Br,-10%,7,3.6,0.68,-3.0,-0.1,2.1
O=c1cc(N2CCCC2)[nH]c(=O)n1-c1ccc(Cl)cc1,-2%,3,0.3,0.66,-0.4,0.1,-5.1

# Continuation:
SMILES,Vif TR-FRET,Beta2AR agonist,UCH37 DUB inh,E coli growth,HNF4A DNA FP,A1 inh,LANA-H2B inh
COc1ccccc1NC(=O)CCC(=O)OC(C)C(=O)c1ccccc1 (stereo not drawn),/,8,4.3,0.7,-2.4,0.2,1.1
Cc1ccc(NC(=O)NNC(=O)c2ccccc2)cc1,5%,4,2.4,0.68,0.7,0.1,-3.2
C=CCn1c(SCC(=O)Nc2cc(C)c(Cl)cc2OC)nnc1-c1ccco1,-9%,-11,1.0,0.71,0.4,2.3,3.8
CCN(CCn1cccn1)C(=O)CCc1nnc(-c2ccc3c(c2)OCO3)o1,?,-8,1.0,0.73,-4.9,0.5,1.3
COc1ccccc1/C=C/C(=O)OCC(=O)c1c(N)n(C)c(=O)n(C)c1=O,-21%,14,-16,0.72,-2.7,-0.9,2.0
Cc1ccc(C(=O)NCC(=O)NC2CCCCCC2)cc1,/,13,2.3,0.63,1.5,-0.2,1.2
CSc1ccc(/C=N/n2c(C)nc3ccccc3c2=O)cc1,-1%,-5,/,/,-1.0,/,/
CN(C)CCNc1oc(COc2ccc(Cl)cc2Cl)nc1C#N,-5%,2,-3.3,0.65,9.2,-0.3,-3.5
C=C(C(=O)c1ccccc1)C(c1ccccc1)C(C)C(=O)c1ccccc1 (stereo not drawn),20%,4,3.9,0.7,-4.9,1.0,0.9
O=C(Nc1ccccc1C(F)(F)F)N1CCN(c2ccccn2)CC1,-9%,-1,1.8,0.69,3.4,0.3,1.5
COc1cccc(CNC(=O)c2cnc(-c3ccccn3)nc2C(F)(F)F)c1,0%,-2,/,/,2.3,-1.1,-23
CCc1n[nH]c(=S)n1/N=C/C(C)=C\c1ccccc1,/,5,/,/,-2.6,-0.1,4.4
CCN1CCN(C(=O)C2CCCN(S(=O)(=O)c3cc(Cl)ccc3Cl)C2)CC1 (stereo not drawn),/,7,2.4,0.7,2.0,0.1,1.8
CCCc1nnc(NC(=O)Cn2c(=O)sc3ccccc32)s1,3%,-4,2.0,0.72,-0.1,1.8,-7.1
CCOC(=O)Cn1c(CN2CCOCC2)nc2c1c(=O)n(C)c(=O)n2C,?,3,2.0,0.77,0.6,?,5.2
C/C(=C\C(=O)C(F)(F)F)Nc1ccc(C(F)(F)F)cc1,-7%,0,46*,/,1.4,-0.6,-3.6

# Compound activity as filed in PubChem.

# No enrichment for hits; 2.1% or so of the library scored in one or more.
